Screening data as filed in PubChem.
AID504770: growth inhibition of E. coli YBA685, primary screen, V. cholerae RctB inhibitors. E. coli YBA685 rctB-dependent plasmid, OD600 growth, 3 h; stronger effect = lower value. z-score (concentration not given with the values). 0.27% of 130,000 active;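 active = z-score under -2 on both plates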;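 note: wells of about 30 µL received 100 nL stock; score is relative to mean and SD of the test wells; the first replicate is given; strong numbers were not always called active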
CapD inh: Bacillus anthracis CapD inhibitors, primary screen, biochemical, fluorescence intensity; purified CapD enzyme, fluorescence intensity read-out; stronger effect = lower value; some hits fall short of the stated cut; z-score (test concentration not listed); 0.23% of 140,000 active; AID 492967, 2010; CapD gamma-glutamyltranspeptidase (Bacillus anthracis Ames Ancestor);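 active = z-score under -4 in either of two replicates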;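 note: stock transfer was 100 nL into about 40 µL; score is relative to mean and spread of the plate; one replicate is shown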
Active calls of the source: *; · = not tested or not shown; & = joins results of further samples. These rows are one share of the data (hit frequency here may not be typical).

Compound	AID504770	CapD inh
Cc1nc2c(cc1C#N)C(O)Oc1c(Cl)cc(Cl)cc1-2 (stereo not given)	-0.65	·
CCn1c(=O)n(CC)c2cc(N3CCCC3)c(NS(C)(=O)=O)cc21	0.9	4.7
O=C(Nc1ccccc1)ON=C1CCCC1	-0.25	0.36
O=C(Cc1ncc(C(F)(F)F)cc1Cl)NO	1.4	0.015
O=C(NCc1cccs1)c1ccc(Cn2cc(C(F)(F)F)ccc2=O)cc1	·	-0.18
CCOc1ccc(N=C(c2ccccc2)N2CCOCC2)cc1	-0.05	·
COc1ccccc1Nc1nc(-c2ccc(OC)c(OC)c2)cs1	-0.15	-0.65
Cc1[nH]c(-c2ccc(F)cc2)cc1C(=O)N1CCN(C2CCCCC2)CC1	1.2	-1.1
COC(=O)CN(C(=O)c1cc2ccccc2oc1=O)c1ccc(Br)cc1	-1.5	-1.2
C#CCOc1ccc(OC(=O)c2ccc(OCCCCCC)cc2)cc1	·	0.06
Cc1ccc(-n2c(SCCCC#N)nnc2-c2ccccc2)cc1C	0.25	·
O=C(CSc1nc(-c2ccccc2)cc(-c2ccccc2)n1)NCc1ccco1	·	49
CCOC(=O)C1CCCCN1Cc1ccc(C)cc1 (stereo not given)	0.15	-0.23
Nc1ccccc1CC(c1c[nH]c2ccccc12)c1c[nH]c2ccccc12	0.1	0.08
Oc1ccc(SSc2ccc(O)cc2)cc1	0.2	-0.14
COc1ccc(C2=NN(c3nc(C)c(C(C)=O)s3)C(c3ccc(OC)cc3)C2)cc1 (stereo not given)	·	13
CCOC(=O)c1c(NC(=O)CSc2nnc(CNC(=O)c3cccs3)n2CCc2ccccc2)sc2c1CCC2	·	-0.27
CCOC(=O)/C=c1\s/c(=C\c2cccs2)c(=O)n1CC(N)=O	0.25	·
O=C1CC(=O)c2c(Cl)c(Cl)c(Cl)c(Cl)c21	·	-1.3
O=C(c1c[nH]c(-c2nnc3ccccn23)c1)c1ccccc1O	0.1	·

Carrying on.
Compound	AID504770	CapD inh
COc1nc(OC)nc(N2CC3CC(C2)c2cccc(=O)n2C3)n1 (stereo not given)	·	2
O=C(N/N=C/c1ccc(Oc2ccccc2)cc1)Nc1ccccc1	·	-0.62
O=C(CSCc1cc2cccc3c2n(c1=O)CCC3)NCC1CCCO1 (stereo not given)	·	7.2
O=C(NCc1cc(-c2ccccc2)no1)c1cc(-c2ccccc2Cl)no1	·	-0.32
CCOC(=O)c1ccc(NC(=O)CSc2ncnc3sc(C)c(C)c23)cc1	·	0.2
Cc1ccccc1NC(=O)CSC(=O)c1ccccc1	0.6	0.005
CC(C)(C)SC(=S)SCC(=O)c1ccc(Cl)cc1	·	-0.17
Cc1[nH]n(C2=NCCS2)c(=O)c1N=Nc1cccc(C(F)(F)F)c1	·	-0.45
N#CC(C#N)=Cc1c(OCc2cnc(Cl)s2)ccc2ccccc12	·	-0.2
Cc1ccc(-n2nc3c(c2NC(=O)c2ccc(S(=O)(=O)N(C)C)cc2)CS(=O)(=O)C3)c(C)c1	·	-0.045
O=C1Nc2ccccc2/C1=C\C1CC2C=CC1C2 (stereo not given)	-0.8	-1
Cc1ccc(-c2noc(C3CCN(C(=O)Nc4ccc(C#N)cc4)CC3)n2)o1	-0.05	·
C=C1Cn2c(nnc2-c2sc3ccccc3c2Cl)S1	0.9	·
CCOc1cccc2c1N(C(=O)c1cccc(F)c1)C(C)(C)c1ssc(=S)c1-2	·	-0.35
Cc1cc(C)c2c(-n3cccc3)nn(CC(=O)NC(C)c3ccc4c(c3)OCCO4)c2n1 (stereo not given)	0	7.5
OC(c1nnc(-c2ccccc2)o1)c1cn(-c2ccccc2)nc1-c1cccnc1 (stereo not given)	-0.65	·
O=C(NCCc1c[nH]c2ccccc12)c1ccc(CNc2nc(=S)[nH]c3ccccc23)cc1	·	-0.57
CC(C)Oc1ccccc1Nc1ncnc2ccccc12	-1.2	1.5
CC1CCCCN1C(=O)CNCc1ccc(F)cc1 (stereo not given)	-0.35	·
COc1ccc(-c2ccc(C(=O)O)c(=O)[nH]2)cc1	-0.5	·

Following part
Compound	AID504770	CapD inh
Cc1cccc(Nc2nc3nonc3nc2Cl)c1	0.65	-2.7
CCCC(=O)N(c1ccc2oc(C)c(C(C)=O)c2c1)S(=O)(=O)c1ccc2ccccc2c1	·	-0.21
COC(=O)c1ccc(OC(=O)c2cccnc2SC)cc1	-0.75	·
Cc1cc(C)nc(/N=C(/NC(=O)Nc2cccc(Cl)c2)Nc2ccccc2C)n1	-1.7	1.9
Cc1nn(-c2ccccn2)c2c1C(=O)CC(c1ccco1)C2 (stereo not given)	-0.65	0.28
O=C(O)CCC(=O)N1N=C2/C(=C/c3ccc(F)cc3)CCCC2C1c1ccc(F)cc1 (stereo not given)	0.15	-0.18
COc1ccc(-c2nc3ccccc3n2C)cc1	-1.2	2.1
OC(CSc1ccc(Cl)cc1)CN1CCOCC1 (stereo not given)	-0.5	·
COCCOC(=O)C1=C(C)OC(N)=C(C(=O)OCc2ccccc2)C12C(=O)Nc1ccccc12 (stereo not given)	·	-0.24
CCCn1c(=O)c2ccccc2n2c(SCC(=O)N3CCN(C(=O)OCC)CC3)nnc12	-0.45	·
CCOc1ccc(NC(=O)CCS(=O)(=O)c2cc3c(cc2C)NC(=O)CO3)cc1	0.3	0.28
O=C(c1ccc2n[nH]nc2c1)N1CCC2(CC1)OCCCO2	·	-0.49
CCSc1nnc(-c2cnn(-c3ccccc3)c2-n2cccc2)n1C	·	0.24
CN(CC(=O)N1CCc2ccccc21)Cc1ccccc1	-0.25	·
NC(=O)c1ccsc1NC(=O)c1csc2c1CCCC2	-0.55	8.1
Cc1nccc(-c2cc(-c3ccc(Cl)cc3Cl)no2)n1	0.25	0.53
CSc1nc(-c2ccccc2)nc2c1C1(CCCCC1)Cc1ccccc1-2	·	5.5
Cn1c(=O)[nH]c(=O)c2c1ncn2CCN1CCOCC1	0	0.63
CSc1nc(C(F)(F)F)nc(N)c1C#N	-1.2	-0.82
COc1cccc(CNC(=O)C(Cc2ccccc2)n2cccc2)c1 (stereo not given)	-0.2	-0.47

Next section, starting with the last 4 of the part before.
Compound	AID504770	CapD inh
CSc1nc(-c2ccccc2)nc2c1C1(CCCCC1)Cc1ccccc1-2	·	5.5
Cn1c(=O)[nH]c(=O)c2c1ncn2CCN1CCOCC1	0	0.63
CSc1nc(C(F)(F)F)nc(N)c1C#N	-1.2	-0.82
COc1cccc(CNC(=O)C(Cc2ccccc2)n2cccc2)c1 (stereo not given)	-0.2	-0.47
Cn1c(-c2c(-c3ccccc3)n[nH]c2-c2cccs2)nc2ccccc21	-0.85	·
COc1ccc(Cl)cc1NC(=O)CN(C)C(=O)Cc1coc2c(C)c(C)ccc12	-0.35	·
C(=N\n1cnnc1)/c1ccc(OC2OCCOC2Oc2ccc(/C=N/n3cnnc3)cc2)cc1 (stereo not given)	-0.45	·
CN1CCN(C(=O)CSc2nc(-c3ccc(F)cc3)cc(C(F)(F)F)c2C#N)CC1	-0.8	1.6
COc1ccc(/C=C2\CCCC3C2=NN(C(=O)c2ccco2)C3c2ccc(OC)c(OC)c2)cc1OC (stereo not given)	-0.35	8.4
Nc1ccc2c(c1)ncn2CCCn1cnc2cc(N)ccc21	-2.4	1.2
Nc1ccc(C(=O)Nc2ccc(-c3nc4ccc(NC(=O)c5ccc(N)cc5)cc4s3)cc2)cc1	·	57
CCOC(=O)c1csc(-c2csc(C)n2)n1	0.55	-0.4
CCOC(=O)CSc1nc2ccccc2c(=O)[nH]1	-0.25	-0.14
CNC1CCN(Cc2c(OC)cccc2OC)CC1	·	0.19
COc1ccc(C(=O)[C@@H]2[C@H]3C4COC(O4)C(=O)[C@@H]3[C@H]3C=Cc4ccccc4N32)cc1 (stereo not given in full)	·	5.8
CCCC1(C(=O)OC)NC(c2ccco2)C2C(=O)N(C)C(=O)C21 (stereo not given)	1.1	·
CCOc1ccc(C2C(C(=O)OC(C)C)=C(C)NC3=C2C(=O)CC(c2ccc(OC)cc2)C3)cc1OC (stereo not given)	·	2.3
CCOc1ccc(N2C(=O)/C(=C\c3ccc(Br)s3)S(=O)(=O)C2c2cccc([N+](=O)[O-])c2)cc1 (stereo not given)	·	-0.35
N#Cc1c(NCSCc2ccccc2)sc2c1CCCCC2	-0.15	0.35
Cn1nc(C2CC2)cc1C(=O)O	-0.35	·
CC(C)(CC(=O)O)n1cccc1	·	0.03
COc1ccc(/C=C/C(=O)NC(=S)Nc2ccc(F)cc2C)cc1OC	·	0.015
O=C(CSc1nnc(COc2ccc(F)cc2)o1)N1c2ccccc2CCc2ccccc21	0.75	·
CC(C)(C)c1cc2cc(NC3CCN(C(=O)c4ccc(S(C)(=O)=O)cc4)CC3)ccc2[nH]1	·	-0.17

Single records, from the list above. Order of screens: AID504770, CapD inh
CN(CC(=O)N1CCc2ccccc21)Cc1ccccc1 across the screens: -0.25, ·
CCSc1nnc(-c2cnn(-c3ccccc3)c2-n2cccc2)n1C across the screens: ·, 0.24
CCOc1ccc(N=C(c2ccccc2)N2CCOCC2)cc1 across the screens: -0.05, ·
CSc1nc(C(F)(F)F)nc(N)c1C#N across the screens: -1.2, -0.82
COc1ccc(Cl)cc1NC(=O)CN(C)C(=O)Cc1coc2c(C)c(C)ccc12 across the screens: -0.35, ·

Other results:
Every second line gives: AID504770 | CapD inh
CCOC(=O)c1oc2ccccc2c1COC(=O)C1=NN(c2ccccc2)C(=O)CC1
    0.3 | ·
O=C1CCC(C(=O)N2CCN(Cc3ccccc3)CC2)N1 (stereo not given)
    -0.65 | 0.2
CC(C)(C)c1ccc(N2C(=O)CCC2=O)cc1
    -0.65 | -0.02
Cc1ccc(C)c(CN2C(=O)c3ccccc3S(=O)c3ccc(C(=O)N4CCCCCC4)cc32)c1 (stereo not given)
    0.1 | 69
COC(=O)C1=CN(Cc2cccs2)C=C(C(=O)OC)C1c1cccs1
    -1.3 | 92
CC(CN(C)C)CN1c2ccccc2Sc2ccccc21 (stereo not given)
    0.05 | -0.84&-0.47
COS(=O)(=O)c1ccc2c(c1)OC(C)(C)CC2=O
    · | 1.9
CS(=O)(=O)C1CS(=O)(=O)CC1O (stereo not given)
    · | -0.48
O=C1OCc2ccc(NS(=O)(=O)c3ccc(N4C(=O)CCC4=O)cc3)cc21
    0.9 | -0.67
CC1CC(C)N(C(=O)c2cc(-c3ccccc3)on2)C(C)C1 (stereo not given)
    0.45 | ·
O=C(O)CCSc1nc2ccccc2c(=O)[nH]1
    -0.75 | -0.12
Cc1cnc(NC(=O)C2=NN(c3ccccc3)C(=O)CC2)s1
    0.4 | ·
CN1C(=O)/C(=C2\SC(=S)N(c3cccc(Br)c3)C2=O)c2ccccc21
    · | 0.04
Cc1cc(N2CCN(C3=NCC(C)(C)S3)CC2)n2c(nc3ccccc32)c1C#N
    -0.85 | ·
O=C(/C=C1\Sc2ccccc2NC1=O)NCc1cccnc1
    -0.6 | -0.15

Next part:
Every second line gives: AID504770 | CapD inh
CCn1c(CNC(=O)C(C)(C)C)nc2ccccc21
    0.05 | -1
CC(C)=C1CCC(C)C/C1=N\O (stereo not given)
    1.3 | -0.53
CS(=O)(=O)CC(=O)NC1CCCCC1
    0.1 | 0.3
N#Cc1ccccc1S(=O)(=O)Nc1ccc2c(c1)C(=O)OC2
    1.1 | -0.45
O=C(Nc1cc(Cl)cc(Cl)c1)c1ccccc1O
    · | 16
O=S(=O)(NC1CCCCCCC1)c1ccc(Br)cc1
    · | 0.51
Cc1oc(C(=O)O)cc1CN1CCCC1
    -1.1 | ·
O=C(O)Cn1c2c(c3ccccc31)CCCC2
    -0.35 | 0.14
CN(C)S(=O)(=O)Nc1cccc(Br)c1
    2 | 0.055
O=C1c2cccc3cccc(c23)C(=O)N1CCN1CCN(C(=O)C23CC4CC(CC(C4)C2)C3)CC1
    · | 0.075
CC1CCN(c2ccc(/C=c3\sc4nc5ccccc5n4c3=O)cc2[N+](=O)[O-])CC1
    · | -0.15
O=C(O)c1ccc2c(c1)S(=O)(=O)c1ccccc1C2=O
    0 | 0.095
Cc1ccc(Cl)cc1N1C(=O)C2C3c4ccccc4C(c4ccccc43)C2C1=O (stereo not given)
    · | 0.19
O=C1C2=C(Nc3ccccc3SC2c2cccnc2)c2ccccc21 (stereo not given)
    0.55 | -0.38
COc1ccc(N2C(=O)NC(=O)/C(=C/c3ccc(OC)c(OC)c3OC)C2=O)cc1
    · | 0.82

(continued)
Every second line gives: AID504770 | CapD inh
Cn1c(-c2sc3cc(C(F)(F)F)cnc3c2-c2cccs2)n[nH]c1=S
    · | 2.4
O=C(Cn1c(=O)[nH]n(-c2ccccc2)c1=O)N1CCc2ccccc2C1
    -1.3 | ·
COc1ccc(/C=C2/C(=O)C(C)(C(C)C)CCC2C)cc1 (stereo not given)
    0.55 | 0.18
CN(C)c1ccc(C(=O)NCCCN2CCCC2=O)cc1
    0.75 | ·
COc1cc(C2C(C(=O)OCc3ccccc3)=C(C)NC3=C2C(=O)CCC3)cc(Br)c1O (stereo not given)
    · | 15
O=C(/C=C/c1ccc2c(c1)OCO2)Nc1ncc([N+](=O)[O-])s1
    · | 0.36
NS(=O)(=O)c1cc([N+](=O)[O-])c(N2CCN(C(=O)OCC3CCCCN3Cc3ccncc3)CC2)s1 (stereo not given)
    · | -1.6
CCCCCCn1c(SCC(=O)/C(C#N)=C(\C)N)nnc1-c1c[nH]c2ccccc12
    0.8 | ·
COc1cc(OC)cc(-c2nc(-c3ccccc3)c(-c3ccc(Cl)cc3)[nH]2)c1
    · | -0.17
O=C(O)c1cn(-c2ccccc2)nc1-c1ccccc1
    -0.6 | -0.01
